E coli growth – E. coli growth inhibition, primary screen, OD600 | Escherichia coli growth, 23 h; hits give low values | OD600 absorbance (test concentration not listed) | actives 0.21% (n = 330,000) | AID 1053175, 2014;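 active = OD600 absorbance below the run mean of sample wells minus 3.6 SD, in any replicate, cut at about 0.56 in these data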;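 also: stock transfer was 300 nL into about 60 µL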
FGF22 binding – binders of human FGF22 protein, primary screen, FGF22 synaptogenesis inhibitor project, biophysical, thermal shift, single point | Fibroblast growth factor 22 (Homo sapiens), Q9HCT0 | recombinant FGF22 thermal shift, SYPRO orange fluorescence; percent of sucrose octasulfate shift, DMSO zero | calls only at 9.99 µM | actives 1.5% (n = 340,000);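 active = melting point raised past a set limit in the mean and every replicate; inconclusive = no clear call; three in four hits are not shown here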
Target sequence (Q9HCT0 whole entry, looked up): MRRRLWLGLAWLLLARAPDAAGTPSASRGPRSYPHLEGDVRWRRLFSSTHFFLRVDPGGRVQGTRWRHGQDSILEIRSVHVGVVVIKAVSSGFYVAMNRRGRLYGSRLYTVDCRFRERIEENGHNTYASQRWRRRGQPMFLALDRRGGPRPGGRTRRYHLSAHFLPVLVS
ALR H2O2 inh – inhibitors of human ALR sulfhydryl oxidase, primary screen, biochemical, H2O2 detection, HRP-luminol luminescence, single point; purified ALR, DTT oxidation; actives 3.8% (n = 290,000); FAD-linked sulfhydryl oxidase ALR (Homo sapiens), P55789; inhibition, % (test concentration not listed);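 active = mean and each replicate at 75% or more; inconclusive = only one of the two met; inactive = neither met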;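 also: stock transfer was 7.5 nL into about 7.5 µL; 0% = neutral wells and 100% = wells with inactivated enzyme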
Target sequence (P55789 whole entry, looked up): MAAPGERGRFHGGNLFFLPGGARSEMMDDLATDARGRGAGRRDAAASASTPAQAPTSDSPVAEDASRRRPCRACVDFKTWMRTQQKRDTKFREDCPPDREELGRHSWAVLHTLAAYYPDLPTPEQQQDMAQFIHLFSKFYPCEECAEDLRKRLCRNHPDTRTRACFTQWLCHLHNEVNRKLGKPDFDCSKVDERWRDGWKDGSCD
Vif TR-FRET – inhibitors of Vif binding to APOBEC3G peptide, primary screen, biochemical, TR-FRET, GST-Vif 1-94, biotin-A3G peptide, dose response retest (AID 1117319) | Virion infectivity factor (Human immunodeficiency virus type 1 group M subtype B (isolate … | inhibition, %, or IC50 in µM where a hit was titrated | actives 0.57% (n = 260,000) | TR-FRET GST-Vif / biotin-A3G peptide binding; higher % means a stronger effect; test concentration not given here; strong numbers were not always called active;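 active = above the screen mean plus three standard deviations and confirmed in dose response; inconclusive = results disagree or hit not tested in dose response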;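 also: Vif residues 1-94 fused to GST binding biotinylated APOBEC3G peptide 110-148; 0% = full assay without inhibitor and 100% = GST in place of GST-Vif; retest series ran down from 100 µM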
AF4-AF9 inh – inhibitors of AF4 peptide binding to AF9, primary screen, biochemical, AlphaScreen, biotin-AF4 peptide, FLAG-AF9, single point. Protein AF-9 (Homo sapiens), P42568. actives 0.47% (n = 350,000). AID 651704, 2012. inhibition, % at 10 µM;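 active = every replicate reaching a set inhibition limit, whatever the replicate mean, cut at about 25% in these data; inconclusive = mean inhibition reaches that limit but some replicates miss it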;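 also: 0% = plate neutral control median and 100% = total signal loss; the record names both 10 and 1 µM as test concentration; the first replicate is given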
Target sequence (P42568 whole entry, looked up): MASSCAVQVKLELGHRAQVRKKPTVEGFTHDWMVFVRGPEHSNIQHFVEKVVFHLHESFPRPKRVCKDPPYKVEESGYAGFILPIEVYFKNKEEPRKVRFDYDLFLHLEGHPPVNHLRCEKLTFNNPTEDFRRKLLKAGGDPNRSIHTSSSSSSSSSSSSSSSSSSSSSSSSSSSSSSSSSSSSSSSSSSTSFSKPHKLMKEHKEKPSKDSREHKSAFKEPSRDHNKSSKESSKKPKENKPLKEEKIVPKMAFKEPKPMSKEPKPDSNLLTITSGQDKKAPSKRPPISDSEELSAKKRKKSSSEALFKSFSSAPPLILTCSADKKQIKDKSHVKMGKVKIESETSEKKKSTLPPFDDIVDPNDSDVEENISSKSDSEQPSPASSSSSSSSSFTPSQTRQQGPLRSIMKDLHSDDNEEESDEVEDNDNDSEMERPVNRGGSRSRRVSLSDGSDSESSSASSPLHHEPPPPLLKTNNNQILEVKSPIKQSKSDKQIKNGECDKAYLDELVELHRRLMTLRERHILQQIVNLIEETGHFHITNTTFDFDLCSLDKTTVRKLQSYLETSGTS
HNF4A DNA FP – change in binding of human HNF4A to DNA, primary screen, biochemical, fluorescence polarization, FITC-DNA; Hepatocyte nuclear factor 4-alpha (Homo sapiens), P41235; 1 h; activity change, % at 10 µM; actives 0.3% (n = 360,000); AID 1224865, 2016; in the data active = activity change above about 30%, passing the limit was not always enough;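 also: controls were the assay level and a saturating level of protein; the project sought stronger binding though the title names inhibitors; some compounds called inactive have numbers as strong as hits; positive values seem to mean higher polarization but the record does not say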
Ecoli rRNA inh – reduced GFP signal of wild-type E. coli, primary screen, bacterial rRNA inhibitor project, GFP/RFP fluorescence, OD600, single point; E. coli WT GFP vs humanized-ribosome RFP mutants, 24 h; hits give low values; DMSO median 0, no signal -100; GFP signal change (wild-type ribosome), % (concentration not given with the values); actives 1.6% (n = 350,000); AID 720706, 2013;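 active = significant combined selectivity score with lowered wild-type GFP, culture density cut under 30%, mutant RFP and density less affected; inactive = any of these conditions unmet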; also: one replicate is shown; some compounds called inactive have numbers as strong as hits
Ecoli rRNA inh OD600 – second read-out of Ecoli rRNA inh, no call of its own (marks repeat the call); OD600 change, %; measured here: OD600 growth;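 optical density of the mix in the first replicate; 0 = DMSO median and -100 = no signal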
Ecoli rRNA inh RFP – second read-out of Ecoli rRNA inh, no call of its own (marks repeat the call); RFP signal change, %; measured here: RFP humanized mutant strains;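 first replicate; 0 = DMSO median and -100 = no signal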
An asterisk follows results filed as active; i = inactive; ? = inconclusive; · = no result given; & = joins results of further samples. Only part of the results is shown; count on the stated rates, not on these rows.

item	Compound	E coli growth	FGF22 binding	ALR H2O2 inh	Vif TR-FRET	AF4-AF9 inh	HNF4A DNA FP	Ecoli rRNA inh	Ecoli rRNA inh OD600	Ecoli rRNA inh RFP
1	CCOc1ccc(NC(=O)CN(C)S(=O)(=O)c2ccc(-c3ccc(=O)[nH]n3)s2)cc1	0.68	i	-2	4%	0.0	0.8	4	16	-2.2
2	O=C(CCNC(=O)c1ccccc1)Nc1nc2ccccc2s1	0.64	i	·	·	2.1	0.7	-8	-26	1.0
3	O=C(OCC(=O)N1CCN(C(=O)c2ccco2)CC1)c1ccccc1OCc1ccccc1	0.7	·	-1	3%	·	-6.4	·	·	·
4	COCC(=O)Nc1ccc2c(c1)[C@H]1C[C@H](CC(=O)NCc3cccnc3)O[C@@H](CO)[C@H]1O2	·	i	·	·	-1.9	·	3	2	0.7
5	Cc1ccc(S(=O)(=O)N(C)c2ccc(OCc3cccc(C)c3)cc2)cc1	0.73	i	-18	·	-2.4	1.8	8	8	-2.5
6	CCOC(=O)N1CCN(C(=O)c2ccc(OCC)cc2)CC1	0.71	i	0	0%	-5.4	2.5	14	13	2.7
7	Cc1[nH]c2ccccc2c1/C=N/NC(=O)c1ccc(N)cc1	·	i	·	-23%	6.4	4.6	6	7	-3.4
8	O=C(NCC[C@H]1CC[C@@H](NS(=O)(=O)c2cccc(F)c2)[C@@H](CO)O1)C1CCOCC1	·	i	·	·	-2.9	·	0	-1	4.0
9	CN(C)S(=O)(=O)c1ccc(C(=O)Nc2ccc(CCC(=O)N3CCCC3)cc2)cc1	0.73	·	·	6%	·	-0.7	·	·	·
10	COc1ccc(NC(=O)N[C@H]2CC[C@@H](CCNC(=O)CCN3CCCCC3)O[C@@H]2CO)cc1	·	i	·	·	-2.3	·	2	0	-1.0
11	Cc1ccccc1C(=O)N1CCC(C(=O)NN2C(=O)NC3(CCC(C)CC3)C2=O)CC1 (centres undefined)	0.73	i	-1	6%	-1.8	1.3	·	·	·
12	C[C@@H]1CN([C@@H](C)CO)C(=O)CCCn2cc(nn2)CO[C@H]1CN(C)C(=O)Nc1ccc(C(C)(C)C)cc1	·	i	·	·	0.0&0.2	·	-5&8	1&5	-1.9&0.0
13	COc1cccc(C2=NN(C(=O)C3CC3)C(O)(C(F)(F)F)C2)c1 (centres undefined)	·	i	·	0%	-0.8	4.3	1	-20	4.0
14	C[C@@H]1CN([C@H](C)CO)C(=O)c2cc(C#CC3(O)CCCC3)cnc2O[C@@H]1CN(C)C(=O)C1CCOCC1	·	i	·	·	-3.9	·	1	8	-2.8
15	C[C@H](CO)N1C[C@H](C)[C@@H](CN(C)C(=O)Nc2ccc(F)cc2)Oc2ccc(NC(=O)Cc3cn(C)c4ccccc34)cc2C1=O	·	i	·	·	3.1	·	-2	0	1.0
16	CCOc1ccccc1NC(=S)NCCc1ccccc1	0.71	i	-13	-9%	-3.2	1.1	-3	-3	-3.7
17	CCOC(=O)Nc1sc2c(c1C#N)CCCC2	0.66	·	70	1%	·	-2.8	-23	-24	-8.3
18	Cc1c(C)c2c(OCC(=O)NCc3cccnc3)cc3c(c2oc1=O)CCC(C)(C)O3	0.71	i	·	·	-0.6	0.0	·	·	·
19	COC(=O)Cn1c2[n+](c3ccccc31)CC(O)CS2 (centres undefined)	0.7	·	-8	·	·	-1.5	·	·	·
20	N#C[C@@H]1[C@@H](c2ccc(-c3ccccc3)cc2)[C@@H](CO)N1C(=O)Cc1ccccc1	·	i	·	·	-1.3	·	0	9	-1.3
21	O=C(c1cnccn1)N1CC[C@@H]2[C@H](CO)Nc3ccc(-c4ccccc4)cc3[C@@H]21	·	i	·	·	-1.5	·	-6	-4	7.1
22	CN(C)CC(=O)N[C@@H]1CC[C@@H](CCNC(=O)Nc2ccc(C(F)(F)F)cc2)O[C@H]1CO	·	i	·	·	5.5	·	-59	-79	-18
23	Cc1cccc(C(=O)Nc2ccc3c(c2)C(=O)NC3=O)c1	0.75	i	3	·	-11	1.0	5	14	1.2
24	CCOCCCNC(=O)c1cc(Nc2ccc(OC)cc2OC)nc2ccccc12	0.69	i	-51	0%	2.8	3.2	-3	12	3.7
25	O=C(NCC1CCCCC1)c1cccc(S(=O)(=O)NCc2cccnc2)c1	0.71	i	-15	2%	2.0	1.2	8	4	0.9
26	Cc1ccc(S(=O)(=O)NCC[C@@H]2CC[C@@H](NC(=O)Nc3cccc(F)c3)[C@@H](CO)O2)cc1	·	i	·	·	0.2	·	-2	-13	-1.2
27	CCCCn1c(CCc2ccccc2)nc2cc3[nH]c(=O)c(C(C)C)nc3cc21	0.68	i	-14	·	1.6	2.9	9	8	7.3
28	COc1ccc(CN(C)C[C@@H]2OCCCC[C@H](C)Oc3ccc(NC(=O)NC(C)C)cc3C(=O)N([C@H](C)CO)C[C@H]2C)cc1	·	i	·	·	-7.1	·	-1	5	-0.7
29	COc1ccc(C(CNC(=O)Nc2cccc(C)c2)N2CCN(C)CC2)cc1 (centres undefined)	0.72	i	-8	3%	-2.7	-3.1	-2	8	-3.5
30	COc1cccc(-n2c(Cc3cc(=O)[nH]c(=O)[nH]3)nnc2SC(C)C)c1	0.76	i	41	?	5.7	5.2	14	-1	7.9
31	CNC[C@@H]1Oc2c(NS(=O)(=O)c3ccccc3)cccc2C(=O)N([C@@H](C)CO)C[C@@H]1C	·	i	·	·	0.0	·	0	4	-1.9
32	CC(C)(CNC(=O)c1cc2c(s1)CCCC2)N1CCOCC1	0.65	i	·	-6%	0.2	-5.1	6	6	1.0
33	CCC(C(=O)Nc1cc(F)ccc1F)n1nc(C)c2c(C)n(-c3ccc(C)cc3)nc2c1=O (centres undefined)	0.71	i	-17	·	0.5	1.3	-24	-21	0.8
34	COc1ccc(NC(=O)C(C)N2c3cccc4cccc(c34)S2(=O)=O)c(OC)c1 (centres undefined)	0.68	i	-15	-10%	2.3	-3.4	3	1	-3.3
35	CC1CCN(CCCNS(=O)(=O)c2ccc3c(c2)CCN3C(=O)C2CC2)CC1	0.71	i	1	·	-1.8	1.1	2	1	2.9
36	O=C(CNc1ccccc1)N/N=C/c1c[nH]c2ccccc12	·	·	89*	-7%	·	2.9	·	·	·
37	Cc1nc(-c2ccc3c(c2)OCO3)cs1	0.7	·	-5	13%	·	0.1	·	·	·
38	C#Cc1ccc([C@H]2C=C(C(=O)OCC=C)O[C@@H](OCc3ccc(CO)cc3)C2)cc1	·	i	45	·	·	-1.3	-5	-6	-3.8
39	COc1ccc(-c2cc3cc(F)ccc3cn2)cc1	0.68	i	0	·	-3.2	3.0	5	23	2.8
40	Cc1ccccc1-n1c(SC(C)C(=O)NCC2CCCO2)nnc1-c1ccncc1 (centres undefined)	0.64	·	·	-6%	-0.7	1.3	2	-2	-2.8
41	Cc1ccc(N(CC(=O)NC2CCCC2)C(=O)Cn2nnc(-c3ccccc3F)n2)cc1	0.71	i	·	·	0.8	-0.3	-7	-15	10
42	C[C@@H]1CN([C@@H](C)CO)C(=O)c2c(c3ccccc3n2C)-c2ccccc2CO[C@H]1CN(C)Cc1ccncc1	·	i	·	·	1.4	·	1	-7	4.7
43	COc1ccc(N2C(=O)CC(N3CCCCC3)C2=O)cc1 (centres undefined)	0.63	i	5	-8%	-10	3.6	19	11	2.3
44	Cc1ccc(CN2CCN(/N=C/C=C/c3ccccc3[N+](=O)[O-])CC2)cc1	·	i	25	12%	25	3.0	-28	-27	-2.6
45	Cc1ccc(C(=O)C(c2ccccc2)N2Cc3ccccc3C2=N)cc1 (centres undefined)	0.72	·	49	5%	·	-2.5	·	·	·
46	COc1ccc(-c2nnnn2C(C)C)cc1S(=O)(=O)Nc1ccccc1	0.69	i	-2	-3%	2.8	1.2	4	8	-4.1
47	Cc1ccc(S(=O)(=O)Nc2ccc3c(c2)C(=O)N([C@@H](C)CO)C[C@H](C)[C@H](CN(C)S(=O)(=O)c2cccs2)OCCCC[C@H](C)O3)cc1	·	i	·	·	1.2	·	0	-3	-0.3
48	COc1ccc(CCNS(=O)(=O)c2ccc(S(=O)(=O)N3CCCC3)cc2)cc1OC	0.71	i	-4	0%	9.0	-2.0	-3	-5	2.3
49	COc1cc(/C=C2\C(=O)NN(c3ccc(C)cc3)C2=O)cc([N+](=O)[O-])c1O	0.66	·	99*	24%	4.1	-2.4	-14	-11	-2.4
50	COc1ccc(C(=O)NNC(=O)C(=O)Nc2ccc(C)cc2)cc1	0.66	i	-1	·	-4.5	0.5	11	1	1.1
51	O=C(OC(C(=O)Nc1ccc([N+](=O)[O-])cc1Br)c1ccccc1)c1ccccc1 (centres undefined)	0.73	i	-7	-6%	5.2	5.5	1	4	-0.4
52	COC(=O)c1ccc(CC(=O)c2nc3ccccc3s2)cc1	0.68	·	·	14%	·	2.3	·	·	·
53	CSc1nc(C(=O)N2CCc3c([nH]c4ccccc34)C2c2ccccn2)cs1 (centres undefined)	0.67	i	-14	·	12	-1.1	-22	-35	1.7

One compound at a time (already shown).
Profile of `COc1cc(/C=C2\C(=O)NN(c3ccc(C)cc3)C2=O)cc([N+](=O)[O-])c1O` : E coli growth = 0.66; FGF22 binding = ·; ALR H2O2 inh = 99*; Vif TR-FRET = 24%; AF4-AF9 inh = 4.1; HNF4A DNA FP = -2.4; Ecoli rRNA inh = -14; Ecoli rRNA inh OD600 = -11; Ecoli rRNA inh RFP = -2.4
Profile of `Cc1ccc(C(=O)C(c2ccccc2)N2Cc3ccccc3C2=N)cc1` (centres undefined) : E coli growth = 0.72; FGF22 binding = ·; ALR H2O2 inh = 49; Vif TR-FRET = 5%; AF4-AF9 inh = ·; HNF4A DNA FP = -2.5; Ecoli rRNA inh = ·; Ecoli rRNA inh OD600 = ·; Ecoli rRNA inh RFP = ·
Profile of `C#Cc1ccc([C@H]2C=C(C(=O)OCC=C)O[C@@H](OCc3ccc(CO)cc3)C2)cc1` : E coli growth = ·; FGF22 binding = i; ALR H2O2 inh = 45; Vif TR-FRET = ·; AF4-AF9 inh = ·; HNF4A DNA FP = -1.3; Ecoli rRNA inh = -5; Ecoli rRNA inh OD600 = -6; Ecoli rRNA inh RFP = -3.8

High-throughput results from PubChem BioAssay.
